# Vaccinia inh – Vaccinia orthopox stage-specific inhibition. 89,000 tested, 0.01% active. activity change (mCherry), % (concentration not given with the values). AID 1053133. Vaccinia-infected cells, mCherry/Venus stage reporter fluorescence; active compounds read low; some inactives read as strong as hits;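 active = mCherry past -33% and 40 or more points under the early reporter, replicates agreeing; inconclusive = past -33% without that gap or agreement; tested in A549 cells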;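 also: scaled between vehicle wells and reference inhibitor wells; 23 nL library stock went into each well; one replicate is shown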
# Vaccinia inh Venus – further read-out of Vaccinia inh, marked with its call; activity change (Venus), %; measured here: Venus reporter, other viral stage;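 negative = less Venus signal; first of two replicates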
# * hit, by the source's call; ? = inconclusive; . = no result given; & = joins results of further samples.
# Below each compound – Vaccinia inh	Vaccinia inh Venus
> CCCNC(=O)[C@H]1N[C@H]2c3ccc(C4=CCCCC4)c(=O)n3C[C@H]2[C@@H]1CO
    16	12
> C[C@@H](NC(=O)C[C@@H]1CC[C@@H](NC(=O)C2CCOCC2)[C@@H](CO)O1)c1ccccc1
    7	11
> CCO[C@@H]1OC(C(=O)N2CCCC2)=C[C@H](c2ccc3c(c2)OCO3)[C@H]1CCCO
    25	7
> C[C@H]1CN([C@@H](C)CO)S(=O)(=O)c2ccc(Br)cc2O[C@@H]1CN(C)S(=O)(=O)c1ccc(F)cc1
    -27	-30
> C[C@@H]1CCCCO[C@@H](CN(C)Cc2ccc(C(F)(F)F)cc2)[C@H](C)CN([C@@H](C)CO)C(=O)c2cc(NC(=O)Nc3ccc(F)cc3)ccc2O1
    -25	-19
> CC(=O)N1CC[C@@H]2[C@H](CO)Nc3ccc(-c4ccccc4)cc3[C@@H]21
    -9	0
> CCCC(=O)Nc1ccc2c(c1)OC[C@@H](C)N(CC1CCOCC1)C[C@@H](C)[C@@H](OC)CN(C)C2=O
    -2	-4
> Cc1ccc(S(=O)(=O)N(C)C[C@@H]2OCCCC[C@@H](C)Oc3ccc(NS(=O)(=O)c4ccc(F)cc4)cc3C(=O)N([C@@H](C)CO)C[C@H]2C)cc1
    ?	.
> Cc1ccccc1-c1ccc([C@H]2[C@H]3CN(CC4CCOCC4)CCCCN3[C@H]2CO)cc1
    -14	-12
> Cc1ccc(S(=O)(=O)Nc2ccc3c(c2)C(=O)N(C)[C@@H]2CC[C@@H](CC(=O)O)O[C@@H]2CO3)cc1
    7	0
> COc1ccccc1NC(=O)N1CCCCN2[C@H](CO)[C@@H](c3ccc(-c4cccc(C)c4)cc3)[C@@H]2C1
    ?	.
> O=C(C[C@@H]1C[C@@H]2c3cc(NC(=O)Nc4ccc(C(F)(F)F)cc4)ccc3O[C@@H]2[C@@H](CO)O1)NCc1ccc(Cl)cc1
    -9	-2
> O=C(NCC(F)(F)F)[C@@H]1[C@@H](CO)[C@@H]2Cn3c(cccc3=O)[C@H]1N2CC1CCCC1
    -1	-4
> COc1ccc(-c2ccc3c(c2)[C@@H]2[C@@H](CCN2C(=O)c2ccncc2)[C@H](CO)N3C)cc1
    7	-2
> O=C(c1ccncc1)N1CC(=O)N2[C@H](CO)[C@@H](c3ccc(-c4ccccc4F)cc3)[C@H]2C1
    -25	-22
> C[C@@H]1CN([C@H](C)CO)C(=O)Cc2cc(NS(=O)(=O)c3ccc(F)cc3)ccc2O[C@@H]1CN(C)Cc1ccc(C(=O)O)cc1
    3	-3
> C[C@@H]1CN([C@@H](C)CO)C(=O)c2cc(NC(=O)CCCN(C)C)ccc2O[C@@H]1CN(C)Cc1ccc2c(c1)OCO2
    7	-6
> O=C([C@@H]1[C@@H](CO)[C@@H]2Cn3c(cccc3=O)[C@H]1N2Cc1ccccc1)N1CCCCC1
    20	8
> O=C(C1CCOCC1)N1C[C@@H]2[C@H](c3ccccc31)[C@@H](CO)N2C(=O)Nc1cccc(F)c1
    7	9
> C/C=C/c1ccc([C@H]2[C@H](CO)N[C@H]2CN(C(=O)C2CCC2)C(C)C)cc1
    -16	-11

# Part of the list above, with tabs.
SMILES	Vaccinia inh	Vaccinia inh Venus
O=C(c1ccncc1)N1CC(=O)N2[C@H](CO)[C@@H](c3ccc(-c4ccccc4F)cc3)[C@H]2C1	-25	-22
C[C@@H]1CN([C@H](C)CO)C(=O)Cc2cc(NS(=O)(=O)c3ccc(F)cc3)ccc2O[C@@H]1CN(C)Cc1ccc(C(=O)O)cc1	3	-3
C[C@@H]1CN([C@@H](C)CO)C(=O)c2cc(NC(=O)CCCN(C)C)ccc2O[C@@H]1CN(C)Cc1ccc2c(c1)OCO2	7	-6

# The results go on.
# Below each compound – Vaccinia inh	Vaccinia inh Venus
> C[C@@H]1CN([C@@H](C)CO)C(=O)c2cccc(NC(=O)Nc3ccc4c(c3)OCO4)c2O[C@@H]1CN(C)Cc1ccncc1
    13	14
> CO[C@@H]1CN(C)C(=O)c2ccc(NC(=O)C3CC3)cc2OC[C@H](C)N(CC2CC2)C[C@H]1C
    4	3
> COC(=O)C[C@@H]1CC[C@@H]2[C@@H](COc3ccc(NC(=O)c4ccc(OC)cc4)cc3C(=O)N2C)O1
    2	2
> C[C@@H](NC(=O)C[C@H]1CC[C@@H](NC(=O)CN2CCOCC2)[C@@H](CO)O1)c1ccccc1
    -1	2
> C[C@H](NC(=O)C[C@H]1C=C[C@H](NS(=O)(=O)c2cccc(F)c2)[C@@H](CO)O1)c1ccccc1
    -4	3
> O=C(Cc1ccccc1)N1CC(=O)N2[C@H](C1)[C@@H](c1ccc(-c3ccccc3)cc1)[C@@H]2CO
    ?	.
> Cc1ccc(S(=O)(=O)Nc2ccc3c(c2)CC(=O)N([C@@H](C)CO)C[C@H](C)[C@@H](CN(C)S(=O)(=O)c2ccc(C)cc2)O3)cc1
    -1	1
> CCN1[C@H](C(=O)NCCCN(C)C)[C@@H](CO)[C@@H]2Cn3c(ccc(C4=CCCC4)c3=O)[C@@H]21
    -7	-8
> C[C@H](CO)N1C[C@H](C)[C@@H](CN(C)S(=O)(=O)c2cn(C)cn2)OCCCC[C@H](C)Oc2ccc(NC(=O)c3ccncc3)cc2C1=O
    6	4
> CO[C@@H](CN(C)C(=O)Nc1ccc(Cl)cc1)[C@@H](C)CN(Cc1ccccc1Cl)[C@@H](C)CO
    -19	-12
> COc1ccc(S(=O)(=O)N[C@H]2CC[C@H](CC(=O)NCc3ccccc3F)O[C@@H]2CO)cc1
    -1	8
> CCCC#Cc1ccc([C@@H]2[C@@H](C#N)N(C(=O)C3CCCCC3)[C@H]2CO)cc1
    -27	-15
> C[C@H]1CN([C@@H](C)CO)C(=O)c2cc(NS(=O)(=O)c3ccccc3)ccc2O[C@H]1CN(C)Cc1ccc(Cl)c(Cl)c1
    ?	.
> O=C(C[C@@H]1CC[C@H]2[C@@H](COC[C@@H](O)CN2C(=O)Nc2ccc(C(F)(F)F)cc2)O1)NCC1CCCCC1
    -26	-15
> C/C=C/c1ccc2c(c1)O[C@@H](CN(C)C(=O)Nc1ccc(C(F)(F)F)cc1)[C@H](C)CN([C@@H](C)CO)S2(=O)=O
    ?	.
> CCC(=O)N(C)C[C@@H]1Oc2cc(Br)ccc2S(=O)(=O)N([C@@H](C)CO)C[C@@H]1C
    17&5	15&-5
> C[C@@H]1CN([C@@H](C)CO)C(=O)Cc2cc(NC(=O)Nc3ccc4c(c3)OCO4)ccc2O[C@H]1CN(C)CC1CCCCC1
    ?	.
> COC(=O)[C@H]1[C@H](CO)[C@H]2Cn3c(ccc(-c4cccc(C(=O)N(C)C)c4)c3=O)[C@H]2N1CC1CC1
    17	17
> C[C@@H]1CN([C@@H](C)CO)C(=O)c2cc(NC(=O)NC3CCCCC3)ccc2O[C@@H](C)CCCCO[C@H]1CN(C)Cc1ccccc1
    ?	.
> CNC[C@H]1OCCCC[C@@H](C)Oc2ccc(NC(=O)c3ccccc3)cc2C(=O)N([C@H](C)CO)C[C@@H]1C
    -13	-6
> N#C[C@@H]1[C@@H](c2ccc(-c3ccccc3)cc2)[C@@H](CO)N1C(=O)Cc1ccccc1
    3	1
> CN(C)c1ccc2c(c1)[C@@H]1C[C@@H](CC(=O)NCCc3ccccc3)O[C@@H](CO)[C@@H]1O2
    -8	1
> C[C@@H]1CN([C@H](C)CO)C(=O)c2cc(N(C)C)ccc2O[C@@H](C)CCCCO[C@@H]1CN(C)C(=O)Nc1ccc(F)cc1
    4	5
> C[C@@H]1CN([C@H](C)CO)C(=O)Cc2cc(NC(=O)Nc3ccc4c(c3)OCO4)ccc2O[C@@H]1CN(C)C
    -7	-5
> C[C@H](CO)N1C[C@H](C)[C@@H](CN(C)Cc2ccc(C(F)(F)F)cc2)OCCCC[C@H](C)Oc2ccc(NC(=O)c3ccncc3)cc2C1=O
    ?	.
> CN1C[C@@H]2[C@H](c3ccccc31)[C@H](CO)N2C(=O)Nc1cccc(F)c1
    7	14
> C[C@H](CO)N1C[C@H](C)[C@@H](CN(C)C(=O)C2CC2)Oc2cc(-c3ccc(C#N)cc3)ccc2S1(=O)=O
    4	1
> C/C=C/c1cnc2c(c1)C(=O)N([C@H](C)CO)C[C@@H](C)[C@@H](CN(C)C(=O)Nc1ccc(OC)cc1)O2
    0	1
> C[C@H]1CN([C@@H](C)CO)C(=O)c2cc(/C=C/c3ccccc3)cnc2O[C@H]1CN(C)C(=O)c1ccncc1
    19	10
> O=C(NC[C@H]1N[C@H](CO)[C@@H]1c1ccc(C2=CCCC2)cc1)C1CCCCC1
    -15	5
> C[C@H](CO)N1C[C@H](C)[C@@H](CN(C)C)Oc2ccc(NC(=O)C3CCCCC3)cc2CC1=O
    7	8
> CNC(=O)C[C@H]1CC[C@@H]2[C@H](COc3ccc(NC(=O)Nc4cc(C)cc(C)c4)cc3C(=O)N2C)O1
    8	7
> CC=Cc1ccc2n(c1=O)C[C@H]1N[C@@H]2[C@@H](C(=O)NCCc2ccccc2)[C@@H]1CO (mixture of isomers)
    6	9
> COc1ccc2c3c(n(C)c2c1)[C@@H](CO)N(C)CC31CN(S(=O)(=O)c2cccc(F)c2)C1
    -13	-17
> C[C@@H]1CN([C@H](C)CO)C(=O)c2cccc(NC(=O)c3ccc(-c4nccs4)cc3)c2O[C@@H]1CN(C)S(=O)(=O)c1cccs1
    16	10
> N#C[C@H]1[C@@H](c2ccc(C#Cc3ccccc3F)cc2)[C@H](CO)N1C(=O)C1CCCC1
    -15	-6
> COc1ccccc1S(=O)(=O)N1CC[C@H]2[C@@H](CO)N(C)c3ccc(C#Cc4ccccc4)cc3[C@H]21
    10	16
> C[C@H]1CN([C@@H](C)CO)C(=O)c2cc(NS(=O)(=O)c3cn(C)cn3)ccc2O[C@@H]1CN(C)S(=O)(=O)c1ccc(F)cc1
    8	3
> CCCNC(=O)[C@@H]1[C@@H](CO)[C@@H]2Cn3c(ccc(-c4ccc(C(=O)N(C)C)cc4)c3=O)[C@@H]2N1CCC
    7	5
> COc1ccc(NC(=O)N[C@@H]2CC[C@@H](CC(=O)NC3CCC3)O[C@H]2CO)cc1
    -1	-3
> COc1ccc(S(=O)(=O)Nc2ccc3c(c2)C(=O)N([C@@H](C)CO)C[C@@H](C)[C@H](CN(C)S(=O)(=O)c2ccccc2)OCCCC[C@H](C)O3)cc1
    -24	-16
> C[C@@H]1CN([C@H](C)CO)C(=O)c2ccccc2-c2ccccc2CO[C@H]1CN(C)C(=O)Nc1cccc(C(F)(F)F)c1
    -33	-29
> OC[C@@H]1[C@H](c2ccc(-c3ccccc3)cc2)[C@@H]2CN(Cc3ccccn3)CCCCN12
    49	24
> N#C[C@@H]1[C@H](c2ccccc2C2=CCCCC2)[C@@H](CO)N1C(=O)CN1CCOCC1
    -16	-18
> C[C@@H]1CN([C@H](C)CO)S(=O)(=O)c2ccc(-c3cccc(C#N)c3)cc2O[C@H]1CN(C)C(=O)c1ccc(F)cc1
    9	1
> O=C(Nc1ccccc1F)N[C@H]1CC[C@H](CCNC(=O)C2CCC2)O[C@@H]1CO
    -2	3
> COc1ccc(S(=O)(=O)N(C)C[C@@H]2Oc3ccc(NS(=O)(=O)c4cccs4)cc3C(=O)N([C@@H](C)CO)C[C@@H]2C)cc1
    -4	5
> C[C@@H]1CN([C@H](C)CO)C(=O)Cc2cc(NC(=O)Nc3ccc4c(c3)OCO4)ccc2O[C@@H]1CN(C)Cc1ccc(Oc2ccccc2)cc1
    -12	-4
> C[C@H]1CN([C@@H](C)CO)C(=O)c2cc(-c3ccccc3)cnc2O[C@@H]1CN(C)Cc1ccccn1
    -6	-10
> COc1cccc(NC(=O)N2C[C@@H](O)COC[C@@H]3O[C@@H](CC(=O)N(C)C)CC[C@H]32)c1
    -1	5

# Part of the list above in order of length of the SMILES, falling:
# Below each compound – Vaccinia inh	Vaccinia inh Venus
> C[C@H](CO)N1C[C@H](C)[C@@H](CN(C)S(=O)(=O)c2cn(C)cn2)OCCCC[C@H](C)Oc2ccc(NC(=O)c3ccncc3)cc2C1=O
    6	4
> CCN1[C@H](C(=O)NCCCN(C)C)[C@@H](CO)[C@@H]2Cn3c(ccc(C4=CCCC4)c3=O)[C@@H]21
    -7	-8
> COc1ccc(-c2ccc3c(c2)[C@@H]2[C@@H](CCN2C(=O)c2ccncc2)[C@H](CO)N3C)cc1
    7	-2

# More structures:
# Below each compound – Vaccinia inh	Vaccinia inh Venus
> C[C@@H]1CN([C@H](C)CO)C(=O)c2cc(Br)cnc2O[C@@H]1CN(C)C(=O)C1CCOCC1
    6&8	-2&2
> O=C(C[C@@H]1CC[C@H](NC(=O)CCN2CCCCC2)[C@@H](CO)O1)Nc1ccc(-c2ccccc2)cc1
    -32	-15
> O=C(c1ccc(F)cc1)N1CC(=O)N2[C@@H](CO)[C@H](c3ccc(-c4ccccc4)cc3)[C@@H]2C1
    16	10
> CN(C)CC(=O)N[C@@H]1CC[C@@H](CC(=O)NCc2ccccc2F)O[C@@H]1CO
    -9	-7
> O=C(C[C@H]1C[C@H]2c3cc(NC(=O)c4ccc5c(c4)OCO5)ccc3O[C@H]2[C@@H](CO)O1)NCC1CC1
    21	10
> O=C(CN1CCOCC1)N1CC[C@@H]2[C@@H](CO)Nc3ccc(-c4ccc(F)cc4)cc3[C@@H]21
    34	9
> C[C@@H]1CN([C@@H](C)CO)C(=O)c2cc(NC(=O)Cn3cnnn3)ccc2O[C@@H]1CN(C)Cc1ccc(C(F)(F)F)cc1
    3	-6
> C[C@H]1CN([C@@H](C)CO)C(=O)c2cccc(NS(=O)(=O)c3ccc(Cl)cc3)c2O[C@@H]1CN(C)C(=O)Nc1ccc(F)cc1
    -4	1
> O=C(NCCc1ccccc1)[C@H]1[C@H](CO)[C@H]2Cn3c(cccc3=O)[C@@H]1N2C(=O)C1CC1
    9	4
> Cc1ccc(-c2cnc3c(c2)C(=O)N([C@H](C)CO)C[C@@H](C)[C@H](CN(C)C(=O)Cc2ccncc2)O3)cc1
    -3	-3
> COc1ccc(-c2ccc([C@@H]3[C@@H](C#N)N(C(=O)NC4CCCCC4)[C@H]3CO)cc2)cc1
    13	8

# From PubChem

# This is a subset. The share of hits here may be higher or lower than overall.
